Cruzain noTriton – cruzain (T. cruzi) inhibition without detergent; P25779; purified cruzain, Z-FR-AMC fluorescence, no detergent; Potency, µM, without a hit: max response, negative = inhibition, hits mostly inhibitors; 2.3% of 200,000 active;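 note: plate controls were enzyme without inhibitor for no effect and buffer without enzyme for full effect; nearly all actives have a fitted effect of over 40% in size; top concentration of the series not given in the record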
Target sequence (P25779 123-467 limits assumed): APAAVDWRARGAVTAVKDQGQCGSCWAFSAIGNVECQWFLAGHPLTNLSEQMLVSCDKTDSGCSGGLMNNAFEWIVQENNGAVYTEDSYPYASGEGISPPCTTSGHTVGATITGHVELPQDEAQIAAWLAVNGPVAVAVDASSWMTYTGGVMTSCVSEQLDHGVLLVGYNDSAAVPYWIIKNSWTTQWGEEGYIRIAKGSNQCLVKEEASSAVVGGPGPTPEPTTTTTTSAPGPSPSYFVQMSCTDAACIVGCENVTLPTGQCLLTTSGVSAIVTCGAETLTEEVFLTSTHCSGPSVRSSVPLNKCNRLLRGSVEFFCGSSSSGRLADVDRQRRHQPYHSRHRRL
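Detergent-free condition (0.00005% Triton X-100) in acetate buffer pH 5.5 with DTT. 1.5 nM enzyme and compound were pre-mixed 15 min, then 2 uM Z-FR-AMC substrate added; reaction progress from fluorescence change between first and third reads (60 s).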
RE007 growth inh – less growth of the S. pombe RE007 Vpr strain. S. pombe RE007 Vpr strain, BacTiter-Glo ATP luminescence, 24 h; control for the full effect not named in the record. Potency, µM (series often up to 92.2 µM), for the others: at the top dose activity change, negative = less growth. 0.21% of 360,000 active. AID 651644; active = well fitted falling curve with a large enough effect; inconclusive = small, poorly fitted or top-dose-only effect; inactive = no such curve, though single readings can be large or run the other way;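 note: % is set by controls: 0 for no effect and ±100 for the full control effect; nearly all actives have a fitted effect of over 50% in size; the assay follows cell death caused by Vpr and the record does not say whether a fall means rescue or toxicity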
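Fission yeast strain RE007, carrying one chromosomally integrated HIV-1 vpr copy, was seeded at OD 0.01 in PMG+AL medium with 23 nL pinned compound. After 24 h at 30 °C and 99% humidity, viability was read by BacTiter-Glo luminescence.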
StopGo reporter – FMDV 2A StopGo reporter, luciferase signal | human cells with a luciferase reporter of 2A StopGo recoding; control for the full effect not named in the record | Potency, µM (doses to about 57.9 µM), without a hit: top-dose signal change, negative = less light | 1.2% of 410,000 active; active = well fitted falling curve with a large enough effect; inconclusive = small, poorly fitted or top-dose-only effect; inactive = no such curve, though single readings can be large or run the other way; tested in HEK293T cells; note: % is set by controls: 0 for no effect and ±100 for the full control effect; nearly all actives have a fitted effect of over 45% in size; luciferase light after 4 h
NS1 inh – influenza NS1 inhibition; S. cerevisiae slowed by influenza A NS1, growth recovery by OD600; Potency, µM (highest dose often 46.1 µM), inactives show at the top dose activity, positive = more growth; 0.4% of 270,000 active; active means well fitted rising curve with a large enough effect; inconclusive means small, poorly fitted or top-dose-only effect; inactive means no such curve, though single readings can be large or run the other way; note: nearly all actives have a fitted effect of over 50% in size
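Read-out: OD600 growth recovery of NS1-expressing budding yeast. Cells grown overnight at 30C in -URA glucose medium, washed, resuspended and diluted 1:100 in 2% galactose assay medium, pH 6.0. Same strain lacking NS1 served as positive control.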
Cruzain Triton – inhibitors of Trypanosoma cruzi cruzain with detergent. purified cruzain, Z-FR-AMC fluorescence, 0.01% Triton. 0.43% of 200,000 active. Potency, µM, for inactives: max response, negative = inhibition, usual class: inhibitors. P25779;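 note: plate controls were neutral wells for no effect and buffer without enzyme for full effect; nearly all actives have a fitted effect of over 40% in size; top concentration of the series not given in the record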
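Detergent-containing run (0.01% Triton X-100) in acetate buffer pH 5.5 with 5 mM DTT: enzyme at 1.5 nM final, 15 min compound preincubation at room temperature, then 2 uM Z-FR-AMC substrate. Activity taken as 60 s fluorescence increase at 360/450 nm.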
MARV entry inh – inhibitors of Marburg virus binding or cell entry; Marburg virus pseudotyped entry inhibition, cell reporter; control for the full effect not named in the record; about a third of the inactives were read at about 46 µM; Potency, µM (titrated, usually from 37.8 µM), for inactives: at the highest dose activity change, negative = inhibition, most hits filed as inhibitors; 1.8% of 300,000 active; AID 540276; active = well fitted inhibition curve with a large enough effect; inconclusive = small, poorly fitted or top-dose-only effect, or effect the other way; inactive = flat fitted curve, though single readings scatter; tested in HEK293 cells; about a fifth of its hits are not listed in these tables; note: % is set by controls: 0 for no effect and ±100 for the full control effect; luciferase read-out
SARS PLpro yeast – blocks SARS-CoV papain-like protease in a yeast assay; 0.19% of 330,000 active; AID 485353; Potency, µM (doses to about 32.9 µM), for the others: at the top dose activity, positive = growth rescue; S. cerevisiae expressing SARS-CoV PLpro, growth rescue; control for the full effect not named in the record; active means well fitted rising curve with a large enough effect; inconclusive means small, poorly fitted or top-dose-only effect; inactive means no such curve, though single readings can be large or run the other way; note: 0% is about no effect; nearly all actives have a fitted effect of over 55% in size; growth read by luminescence after 48 h
LASV entry inh – Lassa virus entry inhibition; Potency, µM (doses to about 37.9 µM), inactives show at the highest dose activity change, negative = inhibition, actives largely listed as inhibitors; 1.2% of 300,000 active; Lassa virus pseudotype entry inhibition, cell reporter; control for the full effect not named in the record; active means well fitted inhibition curve with a large enough effect; inconclusive means small, poorly fitted or top-dose-only effect, or effect the other way; inactive means flat fitted curve, though single readings scatter; tested in HEK293 cells; note: % is set by controls: 0 for no effect and ±100 for the full control effect; nearly all actives have a fitted effect of over 50% in size; luciferase read-out
* marks the source's active call; other numbers are inactive results; ? = inconclusive; . = not tested or not shown; & = joins results of further samples; ! = not active in a repeat; [ ] = dose if it differs, or a comment. Unless noted, calls come from the whole dose curve; as a rule, active = well fitted curve in the direction sought with a large enough effect; inconclusive = small, poorly fitted or top-dose-only effect, or another doubt; inactive = no such curve, though single readings can be large; an effect the other way counts as inactive or inconclusive. Potency is the fitted concentration of half-maximal effect. Random draw from the library, and some 4.7% of all compounds hit somewhere here.

mol	Cruzain Triton	Cruzain noTriton	RE007 growth inh	StopGo reporter	SARS PLpro yeast	MARV entry inh	NS1 inh	LASV entry inh
COc1ccc(C)cc1NC(=O)c1ccc(N(C)S(C)(=O)=O)cc1	-9.4%	-5%	6%	17%	-4%	11%	-3%	?
Cc1ccc(S(=O)(=O)CCSc2cccc(C(=O)Nc3ccccc3C(=O)O)c2)cc1	-10%	4%	5%	-4%	-1%	?	5%	?
CCc1ccccc1N1C(=O)C2CC(C)=C(C)CC2C1=O (stereo not given)	3.2%	11%	-3%	-22%	3%	16%	7%	2%
O=C(Nc1cccc(C(F)(F)F)c1)C1CCN(c2nnc(-n3cccc3)s2)CC1	-10%	-7%	.	-13%	.	.	.	?
O=C(Cn1cccc1C(=O)c1ccccc1)NCCc1ccccc1	.	.	3%	8%	-5%	.	1%	.
O=C(OCC(=O)N1CCCCC1)c1n[nH]c(=O)c2ccccc12	.	.	0%	-18%	-1%	-2%[46.1 µM]	.	8%
COc1ccc(NC(=O)C2CCN(S(=O)(=O)c3ccc(OC)c(OC)c3)CC2)c(OC)c1	1.9%	16%	14%	-6%	-1%	24%&24%	-4%	9%
Cc1ccccc1CN1C(=O)c2ccccc2Sc2ccc(C(=O)N3CCOCC3)cc21	0.7%	?	.	-13%	.	.	.	-14%[46.1 µM]
Cc1c(NC(=O)CN2C(=O)NC3(CCC(C)CC3)C2=O)c(=O)n(-c2ccccc2)n1C (stereo not given)	.	.	0%	0%	-7%	?	1%	20%
CCn1c(-c2csc(-c3ccc(Cl)cc3)n2)n[nH]c1=S	3.3%	?	6%	22%	-6%	2%	8%	5%
O=C(CCCCC(=O)N1CCN(c2ccccc2)CC1)N1CCN(c2ccccc2)CC1	0.6%	?	.	.	-1%	-3%	0%	.
CN(C)S(=O)(=O)c1ccc(Cl)c(NC(=O)COC(=O)C2CSC3(C)CCC(=O)N23)c1 (stereo not given)	-0.8%	-2%	-4%	-8%	0%	-2%	-4%	-12%
Cc1cc(C)nc(SCC(=O)Nc2cc(C)on2)n1	2.5%	0%	10%	16%	4%	1%	?	1%
Cc1ccccc1NC(=O)c1nc(-c2ccncc2)no1	-1.7%	8%	.	25%	.	.	.	0%[46.1 µM]
CC1(C)Cc2c(c(-c3ccco3)nc3sc4c(NCCCO)ncnc4c23)CO1	.	.	0%	?	1%	.	-1%	.
COc1ccccc1CSc1nc2ccccc2[nH]1	-8.8%	4%	-13%	.	-13%	16%	-19%	3%
CCOC(=O)N1CCN(S(=O)(=O)c2ccc(OC)c(Br)c2)CC1	.	.	-21%	-14%	-3%	.	-16%	.
O=C(O)c1ccc2c(c1)C(=O)N(c1ccc(Nc3ccccc3)cc1)C2=O	.	.	-5%	-18%	-1%	.	11%	.
CC(C)Cc1nnc(NC(=O)CC(=O)Nc2ccccc2C(=O)O)s1	5.2%	8%	-4%	-16%	-9%	?	4%	?
COc1ccc(C(=O)NCCC(=O)NCc2cc(=O)n(C)c(=O)n2C)cc1	.	.	8%	0%	-7%	?	3%	10%[46.1 µM]
CCC(=O)NN1CCc2cc3ccc(C)cc3nc21	.	.	-6%	-4%	-1%	-11%[46.1 µM]	-1%	23%[46.1 µM]
Cn1c(N)c(C(=O)COC(=O)c2ccc(C(F)(F)F)cc2)c(=O)n(C)c1=O	.	.	27%	-28%	-6%	1%	.	13%
Cc1noc(C)c1S(=O)(=O)N(CC(=O)NC1CCC(C)CC1)c1ccc(C(C)C)cc1 (stereo not given)	.	.	-6%	-21%	0%	.	6%	.
CCOC(=O)c1cc(-c2ccccc2)sc1NC(=O)CSc1nnnn1C	-4.0%	17%	-3%	-10%	5%	-18%	-28%	6%
CC1(c2ccccc2)NC(=O)N(CC(=O)Nc2ccccc2N2CCCCC2)C1=O (stereo not given)	.	.	-11%	-12%	4%	?	.	4%
O=C(NC(Cc1ccccc1)C(=O)O)/C(=C\c1ccco1)NC(=O)c1ccccc1Br (stereo not given)	-11%	5%	.	-7%	8%	?	20%	2%
CN(C(=O)c1cccc(Cl)c1)C1CCCN(Cc2ccccc2F)C1 (stereo not given)	.	.	-5%	-4%	1%	.	10%	.
O=C1c2ccccc2C(O)N1Cc1ccccc1Cl (stereo not given)	-2.1%	5%	-1%	-10%	-18%	5%	7%	0%
CC(=O)NC(CC(=O)OC(C)C(=O)Nc1ccc(Cl)cn1)c1ccccc1 (stereo not given)	.	.	5%	-2%	0%	-1%	.	-1%
O=C(/C=C/c1ccc([N+](=O)[O-])cc1)NCc1cccs1	-5.6%	-6%	-2%	-13%	-27%	?	7%	?
Cc1ccc(Cn2c(Sc3ncccn3)nc3c2c(=O)[nH]c(=O)n3C)cc1	-0.8%	-6%	0%	-24%	-1%	-12%	8%	3%
Cc1cnc(=O)[nH]c1SCc1cccc([N+](=O)[O-])c1	.	.	16%	-10%	1%	.	26%	.
CS(=O)(=O)N1CCCC(c2nc(-c3ccc(S(=O)(=O)NCc4ccccc4)cc3)no2)C1 (stereo not given)	-1.0%	18%	0%	?	-4%	0.13µM*!	-12%	?
Cc1ccc(S(=O)(=O)Cn2nnnc2C(CC(C)C)N2CCN(C)CC2)cc1 (stereo not given)	.	.	-3%	?	0%	-28%[46.1 µM]	0%	2%[46.1 µM]
CC(Oc1ccc(C(=O)NC2CCCCC2)cc1)C(=O)O (stereo not given)	0.6%	4%	2%	0%	9%	40%	9%	4%
CC1CC(NNC(=O)c2ccccc2)=Nc2ccccc2N1C (stereo not given)	-2.4%	-6%	9%	-13%	2%	15%	-7%	-2%
COc1cccc(OC)c1Cn1nnc2c(=O)[nH]c(C3CCN(C(=O)c4ccccc4)CC3)nc21	-2.1%	19%	.	-4%	.	?	.	7%[46.1 µM]
Cc1cc(-c2csc(N)n2)c(C)n1C	-30%	?	-21%	0%	0%	-20%	19%	-2%
COc1ccc(N2CCN(C(=O)[C@H](Cc3c[nH]c4ccccc34)NC(C)=O)CC2)cc1	.	.	-9%	1%	1%	12%[46.1 µM]	2%	.
Cc1ccc(S(=O)(=O)Nc2c(C)nc3nc[nH]n3c2=O)c(C)c1	.	.	5%	-10%	-1%	25%[46.1 µM]	.	15%[46.1 µM]
Cc1ccc(CN2CCN(CC(=O)NC(C)CCc3ccccc3)C2=O)cc1 (stereo not given)	0.0%	25%	2%	-5%	5%	.	-4%	.
O=C(CSCc1n[nH]c(=O)[nH]1)NCCOc1cccc(Oc2ccccc2)c1	3.3%	7%	3%	3%	2%	?	-26%	24%[14.3 µM]
Cc1nn(CC(=O)N2CCC(C(N)=O)CC2)c(=O)c2nn(-c3ccccc3)c(C)c12	.	.	-6%	-9%	9%	.	9%	.
COC(=O)c1ccc(CSc2cc(C)c3cccc(C)c3n2)o1	.	.	-9%	-20%	-3%	-13%	.	?
COc1ccc(CNC(=O)CCCC(=O)n2nc(C)c3ccccc32)cc1	.	.	17%	?	-8%	-19%[46.1 µM]	-23%	6%[46.1 µM]
C=CCN1C(=O)C(CC(=O)Nc2ccc(OC)cc2)N(Cc2ccco2)C1=S (stereo not given)	0.0%	4%	19%	19%	-2%	-30%	-2%	-10%
CCCOc1ccc(NC(=O)CC2C(=O)N(c3ccc(Cl)cc3)C(=O)N2CCc2ccncc2)cc1 (stereo not given)	-7.1%	20%	.	12%	.	.	.	25%[46.1 µM]
Nc1nc(CN2CCN(c3ccccc3F)CC2)nc(N2CCCc3ccccc32)n1	.	.	8%	-20%	1%	4%[46.1 µM]	-5%	7%[46.1 µM]
Cc1cccc(N2C(=O)C(Oc3ccc(Cl)cc3Cl)C2C=O)c1C (stereo not given)	-18%	?	3%	?	-91%	?	-26%	?
CC(=O)Nc1ccc(S(=O)(=O)N2CCC(C(=O)NCCc3ccc(Cl)cc3)CC2)cc1	.	.	-4%	-7%	-1%	-28%[46.1 µM]	0%	7%

(more compounds)
mol	Cruzain Triton	Cruzain noTriton	RE007 growth inh	StopGo reporter	SARS PLpro yeast	MARV entry inh	NS1 inh	LASV entry inh
Cc1cc2nc(-c3ccc(OCc4ccccc4F)cc3)cc(C(F)(F)F)n2n1	0.1%	-5%	.	0%	.	-1%[46.1 µM]	.	5%[46.1 µM]
O=C(O)c1cccc(NC(=O)c2cc(S(=O)(=O)N3CCOCC3)cs2)c1	.	.	3%	-10%	2%	-2%[46.1 µM]	1%	11%[46.1 µM]
CCCCn1c(N)c(N(CCOC)C(=O)C2CC(=O)N(Cc3ccc(C)cc3)C2)c(=O)[nH]c1=O (stereo not given)	.	.	4%	10%	-1%	14%	.	-14%[46.1 µM]
COC(=O)c1ccc(-n2c(C)nc3ccccc3c2=O)cc1	3.1%	3%	31%	-25%	9%	-11%	-5%	21%
Cc1cc(C(=O)NC(C)Cc2ccccc2)cc(C)c1[N+](=O)[O-] (stereo not given)	.	.	-7%	-24%	0%	-12%[46.1 µM]	-16%	?
COc1ccc(C2CC(=O)N(Cc3cccc(C)c3)c3c2c(C)nn3-c2nc(C)cc(C)n2)c(OC)c1 (stereo not given)	-4.7%	?	.	-16%	.	?	.	-6%[46.1 µM]
COc1ccccc1N1CCN(CCC(=O)Nc2ccc(F)cc2)CC1	.	.	13%	-29%	6%	.	-8%	.
COc1cccc(-c2cc(C(=O)Nc3cc(Cl)ccc3O)on2)c1	-3.8%	-29%	.	56%[activator]	.	.	.	?
COc1cccc(NC(=S)N2c3ccccc3CC2C)c1 (stereo not given)	.	.	3%	0%	-5%	16%[46.1 µM]	4%	5%[46.1 µM]
CCN(CC)c1ccc(/C=C(/C#N)C(=O)NC(C)C)o1	.	.	16%	41%[activator]	-1%	28%[46.1 µM]	0%	-7%
Cc1cccc2cc(CN(Cc3cccs3)S(=O)(=O)c3ccc4c(c3)OCCO4)c(=O)[nH]c12	-3.8%	?	9%	-5%	10%	-27%	?	?
CCOc1ccc(NC(=O)C2CCN(c3nnc(-n4c(C)ccc4C)s3)CC2)cc1	-4.3%	28%	.	?	.	-2%[46.1 µM]	.	4%[46.1 µM]

Source: PubChem BioAssay (National Center for Advancing Translational Sciences (NCATS))
